T cruzi repl: blocks replication of Trypanosoma cruzi; T. cruzi beta-gal in NIH3T3, luminescence, 90 h; inhibition, % (no concentration beside the values); 300,000 compounds, 1.4% hits; AID 1885;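 active means mean inhibition across valid replicates above about 55%, limit read from the data; inconclusive means mean below that limit but half or more replicates reach it; inactive means mean below it, under half of replicates reach it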;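 further: signal also drops with host cell toxicity which is not excluded here; 0% = plate median of DMSO wells and 100% = zero luminescence signal; higher percent means less beta-gal luminescence so fewer parasites; stock transfer was 50 nL into about 50 µL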
Beta cell apopt: beta cell apoptosis inhibition; INS-1E cytokine-induced death, ATP luminescence, 48 h; percent of positive-control rescue, neutral wells zero; protection from apoptosis, % (no concentration beside the values); 300,000 compounds, 0.8% hits;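 active means all replicates at 75% or more, or half of them and the mean; inconclusive means half reach 75% but not the mean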;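 further: 0% = cytokine-treated negative control wells and 100% = positive control rescue; higher means more ATP so stronger rescue from cytokine killing; wells of about 40 µL received 100 nL stock; the first replicate is given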
Ecoli rRNA inh: selective bacterial rRNA inhibition in E. coli; GFP signal change (wild-type ribosome), % (concentration not given with the values); 350,000 compounds, 1.6% hits; AID 720706; E. coli WT GFP vs humanized-ribosome RFP mutants, fluorescence, 24 h; stronger effect = lower value; DMSO median 0, no signal -100;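 active means significant combined selectivity score with lowered wild-type GFP, culture density cut under 30%, mutant RFP and density less affected; inactive means any of these conditions unmet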; further: one replicate is shown; some compounds called inactive have numbers as strong as hits
B2AR ag: agonists of human beta-2 adrenergic receptor inducing internalization | Am2.2-beta2AR cells, FAP receptor internalization, flow cytometry; reference of the scale not given here | response, % (test concentration not listed) | 340,000 compounds, 0.43% hits;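 active means response above a set limit, near 3 SD of response in nonfluorescent compounds, cut at about 42% in these data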;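 further: stock transfer was 100 nL into about 11 µL; a reference agonist was the positive control; negative values mostly stem from fluorescent compounds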
Target sequence (P07550 whole entry, looked up): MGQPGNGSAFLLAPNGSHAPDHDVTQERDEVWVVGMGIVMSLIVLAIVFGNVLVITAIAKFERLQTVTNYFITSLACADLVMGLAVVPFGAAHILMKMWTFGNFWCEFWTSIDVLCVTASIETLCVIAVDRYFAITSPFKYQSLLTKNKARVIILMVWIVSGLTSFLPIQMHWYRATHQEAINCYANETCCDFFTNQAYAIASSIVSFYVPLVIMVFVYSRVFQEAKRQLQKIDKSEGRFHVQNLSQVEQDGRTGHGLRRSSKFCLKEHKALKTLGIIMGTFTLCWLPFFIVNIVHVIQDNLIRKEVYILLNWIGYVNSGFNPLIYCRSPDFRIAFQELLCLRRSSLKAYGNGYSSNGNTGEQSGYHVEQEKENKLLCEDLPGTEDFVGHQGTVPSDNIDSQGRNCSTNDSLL
Calb FLC: affects C. albicans growth with fluconazole. C. albicans CaCi-2 (fluconazole-resistant clinical isolate) + fluconazole, Alamar Blue growth, 48 h. growth inhibition, % (test concentration not listed). 300,000 compounds, 0.57% hits. AID 1979;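 active means most replicates above 75%; inconclusive means exactly half above 75%; inactive means most below 75%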;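 further: all wells also contain fluconazole at 8 µg/ml as a sub-toxic cotreatment; 0% = median of DMSO wells and 100% = median of geldanamycin control wells; wells of about 8 µL received 7.5 nL stock; the first replicate is given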
LANA-H2B inh: blocks KSHV LANA binding to histone H2A/H2B; cell-free LANA-H2A/H2B peptide, fluorescence polarization; inhibition, % (test concentration not listed); 320,000 compounds, 0.6% hits; Q9QR71; in the data active means inhibition mostly above about 10%, no sharp cut-off; inactive means mostly below about 6.7%;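 further: stock transfer was 7.5 nL into about 10 µL; 0% = median of vehicle wells and 100% = median of positive control wells; one replicate is shown; the record names a cut of 25% in any replicate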
Bfl-1 A1 inh: inhibitors of the anti-apoptotic protein A1, read as caspase activation | caspase activation, % (no concentration beside the values) | AID 2462 | MEF A1-2A-BIM cells, Caspase-Glo 3/7 luminescence, 3 h; percent of clofoctol response, vehicle zero | 330,000 compounds, 0.066% hits;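 active means over half of replicate activation scores above 10%, or exactly half above 10 with the replicate mean above 10; inconclusive means replicate mean below 10 yet half the replicates above 10; inactive means over half of replicates below 10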;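 further: wells of about 30 µL received 50 nL stock; many hits fall short of the cut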
ALR inh: human ALR oxidase inhibition via reduced H2O2 | AID 485317 | purified ALR, DTT oxidation, H2O2 HRP-luminol luminescence | P55789 | 290,000 compounds, 3.8% hits | inhibition, % (no concentration beside the values);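 active means mean and each replicate at 75% or more; inconclusive means only one of the two met; inactive means neither met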;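 further: stock transfer was 7.5 nL into about 7.5 µL; 0% = neutral wells and 100% = wells with inactivated enzyme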
Target sequence (P55789 whole entry, looked up): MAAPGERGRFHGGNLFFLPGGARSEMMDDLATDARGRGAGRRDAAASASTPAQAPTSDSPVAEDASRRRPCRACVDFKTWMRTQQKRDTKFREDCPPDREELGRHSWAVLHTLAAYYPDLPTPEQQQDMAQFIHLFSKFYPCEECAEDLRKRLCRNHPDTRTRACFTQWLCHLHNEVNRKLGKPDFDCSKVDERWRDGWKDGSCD
Ecoli rRNA inh OD600: further read-out of Ecoli rRNA inh, marked with its call; OD600 change, %; measured here: OD600 growth;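 optical density of the mix in the first replicate; 0 = DMSO median and -100 = no signal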
Ecoli rRNA inh RFP: also measured in Ecoli rRNA inh; calls as there; RFP signal change, %; measured here: RFP humanized mutant strains;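 first replicate; 0 = DMSO median and -100 = no signal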
* hit, by the source's call; ? = inconclusive; . = not tested or not shown; & = joins results of further samples.

entry	SMILES	T cruzi repl	Beta cell apopt	Ecoli rRNA inh	Ecoli rRNA inh OD600	Ecoli rRNA inh RFP	B2AR ag	Calb FLC	LANA-H2B inh	Bfl-1 A1 inh	ALR inh
1	O=S(=O)(c1cccc(-c2n[nH]c(=S)n2-c2cccc(C(F)(F)F)c2)c1)N1CCOCC1	.	7	0	0	-0.7	17	.	-2.2	?	72
2	COc1ccc(C(=O)NCC(c2ccco2)N2CCc3ccccc3C2)cc1 (stereo not drawn)	2	-7	-15	-21	2.3	7	3	-0.9	0.2	1
3	CC(C)(C)NC(=O)C(c1ccco1)N(C(=O)c1ccc(CN2CCOCC2)o1)c1ccccc1 (stereo not drawn)	9	-5	.	.	.	-7	-14	4.3	0.5	.
4	Cc1scc(C(=O)N/N=C/c2ccc(OCC(C)C)cc2)c1C	3	6	.	.	.	3	50	2.2	0.0	-7
5	CCOc1ccc(C(=S)N2CCN(C)CC2)cc1	-6	-4	11	7	-3.5	-12	1	1.7	0.7	.
6	OC(COCC(F)(F)C(F)(F)C(F)(F)C(F)F)Cn1c2ccc(Cl)cc2c2cc(Cl)ccc21 (stereo not drawn)	51	.	.	.	.	18	-1	3.8	0.0	-5
7	O=C(NCc1cccnc1)c1ccc(Br)s1	-2	5	-7	2	-3.0	7	-1	-10	0.0	-3
8	Cc1cc(NC(=NC2CC2)c2ccccc2)n(-c2ccccc2)n1	-4	-5	23	13	2.5	1	-10	-0.6	0.4	-16
9	COc1ccc(Br)cc1CNCC1CCCO1 (stereo not drawn)	9	-4	17	18	2.6	-3	2	-3.2	-0.9	.
10	Cc1cc(C(=O)COC(=O)Cc2ccc(Cl)cc2)c(C)n1C	.	8	-1	-14	8.8	1	.	1.3	0.2	3
11	Cc1c(C(Nc2ccccn2)c2ccccc2)c(=O)n(-c2ccccc2)n1C (stereo not drawn)	1	-9	.	.	.	5	-12	-5.3	0.5	-12
12	CCOc1ccc(NC(=O)CN(C)C(=O)c2c(C)nn(-c3ccccc3)c2Cl)cc1OCC	2	0	7	8	0.4	-4	.	5.8	-0.6	-1
13	COc1ccc(C(=O)N2CCN(c3ccccc3OC)CC2)cc1	-6	0	3	-2	7.9	-1	0	-2.4	0.5	33
14	COc1cccc(-c2ccc(SCC(=O)NC3CCCC3)nn2)c1	-12	-8	8	3	-1.0	-6	-10	1.7	-0.7	-1
15	Cc1cc(C(=O)Nc2ccc(C#N)cc2)on1	-21	1	0	5	-0.4	3	-14	-0.6	-0.5	-19
16	Cn1c2ccccc2c2c(C(=O)O)cn(C3CCCC3)c(=O)c21	0	-1	1	6	17	-2	-9	0.1	-0.5	2
17	CSc1nc(C)cc(Oc2ccc(=O)n(C)n2)n1	-12	2	.	.	.	10	27	-5.8	0.2	-6
18	CC(C)(C)C(=O)N1CCN(c2ncnc3scc(-c4ccccc4)c23)CC1	22	9	-34	-53	0.7	8	-4	1.9	-0.6	-10
19	CCCCNC(=O)C1COc2ccccc2O1 (stereo not drawn)	-9	.	5	10	-0.7	-3	-19	-0.8	0.0	-9
20	Cc1noc(C)c1NC(=O)Nc1cccc2c1O[C@H](CN(C)S(=O)(=O)c1cn(C)cn1)[C@@H](C)CN([C@H](C)CO)C2=O	.	1	0&6	-2&18	-1.4&-1.3	9	.	.	0.7	-1

Of the compounds above, four contain an aryl methoxy group:
entry	SMILES	T cruzi repl	Beta cell apopt	Ecoli rRNA inh	Ecoli rRNA inh OD600	Ecoli rRNA inh RFP	B2AR ag	Calb FLC	LANA-H2B inh	Bfl-1 A1 inh	ALR inh
2	COc1ccc(C(=O)NCC(c2ccco2)N2CCc3ccccc3C2)cc1 (stereo not drawn)	2	-7	-15	-21	2.3	7	3	-0.9	0.2	1
9	COc1ccc(Br)cc1CNCC1CCCO1 (stereo not drawn)	9	-4	17	18	2.6	-3	2	-3.2	-0.9	.
13	COc1ccc(C(=O)N2CCN(c3ccccc3OC)CC2)cc1	-6	0	3	-2	7.9	-1	0	-2.4	0.5	33
14	COc1cccc(-c2ccc(SCC(=O)NC3CCCC3)nn2)c1	-12	-8	8	3	-1.0	-6	-10	1.7	-0.7	-1

(list continues)
entry	SMILES	T cruzi repl	Beta cell apopt	Ecoli rRNA inh	Ecoli rRNA inh OD600	Ecoli rRNA inh RFP	B2AR ag	Calb FLC	LANA-H2B inh	Bfl-1 A1 inh	ALR inh
21	COc1ccc(N(CC(=O)NCCSc2ccccn2)S(=O)(=O)c2ccccc2)c(OC)c1	14	-2	1	-9	2.4	7	0	2.3	0.3	-31
22	Nc1ncc(-c2ccccc2)c(-c2ccc(O)cc2O)n1	-7	-13	-9	-19	-2.1	-14	-3	-0.9	0.0	98*
23	OCCC1CN(Cc2nc(-c3ccc(F)cc3)cs2)CCN1CCc1ccccc1 (stereo not drawn)	40	3	-6	0	-2.0	6	-12	3.7	-0.1	11
24	CCOc1ccccc1N(C(=O)c1snc(C(N)=O)c1N)C(C(=O)NC1CCCC1)c1ccco1 (stereo not drawn)	15	-3	.	.	.	-6	-14	6.8	0.0	1
25	Cc1ccccc1NC(=O)c1ccc2c(c1)C(=O)N(CC(C)C)C2=O	-8	7	2	6	1.0	2	2	0.0	-0.1	-2
26	O=C(COC(=O)C1CCC1)NCc1ccc(Cl)cc1Cl	-4	-5	-3	1	1.3	4	3	-4.7	1.0	0
27	CN(C)CCN1C(=O)C(=O)/C(=C(/O)c2ccc3c(c2)OCCO3)C1c1ccccn1 (stereo not drawn)	-5	8	4	9	2.4	2	-10	2.9	0.0	-13
28	COc1ccc(N(CC(=O)NC2CCCC2)C(=O)Cn2nnc(-c3ccc(C)cc3)n2)cc1	14	-9	.	.	.	6	14	-0.7	0.0	-14
29	CC(=O)c1ccc(Oc2ncnc3sccc23)cc1	-8	-3	14	10	-1.3	3	-20	1.3	0.5	-2
30	CCCCN1C(Nc2ccccc2)=NC[C@@H]1Cc1ccccc1	.	-3	-2	-7	3.4	4	.	2.3	-0.2	.
31	CCc1nc(CN2CCCC(C(=O)c3ccc4c5c(cccc35)CC4)C2)c(C)[nH]1 (stereo not drawn)	22	34	-8	-13	-1.2	11	-10	1.4	-0.5	-20
32	CN(C)C(CNC(=O)C1CCCN(C(=O)c2ccc(Cl)cc2)C1)c1ccco1 (stereo not drawn)	.	-1	.	.	.	-2	.	1.0	1.2	-5
33	NC(=O)C1CCN(Cc2cccc(OCc3ccccc3)c2)CC1	-4	-3	-3	-2	0.6	8	3	0.3	0.2	13
34	O=c1c2ccccc2sn1-c1cc(S(=O)(=O)N2CCOCC2)ccc1N1CCOCC1	22	.	.	.	.	1	-1	3.8	-2.3	33
35	C/C(=N\NC(=O)c1ccoc1C)c1ccc(Br)s1	4	3	4	3	0.4	8	-5	1.1	0.0	-4
36	CN1C(=O)Cc2cc(S(=O)(=O)N3CCN(c4ccc(Cl)cc4)CC3)ccc21	16	-1	2	15	4.2	-5	-6	-3.7	0.0	-7
37	Cc1ccc(C)c(OCC(=O)NNC(=O)C2CC2)c1	-5	-1	5	5	-3.4	0	-5	-2.4	0.8	3
38	Cc1ccc(/C=c2\sc3nc(-c4ccco4)nn3c2=O)o1	6	-11	.	.	.	15	-5	-0.1	0.5	?
39	COc1ccc(-c2csc(NC(=O)c3ccccc3F)c2C(=O)O)cc1	-1	-3	-4	-9	-1.8	6	10	1.2	-8.3	-18
40	O=C(Nc1ccc(Br)cc1)c1ccc(F)c(S(=O)(=O)NCc2cccs2)c1	29	45	.	.	.	7	-2	-12	0.3	27

Given as labelled records: part of the list above.
29. CC(=O)c1ccc(Oc2ncnc3sccc23)cc1
  T cruzi repl: -8; Beta cell apopt: -3; Ecoli rRNA inh: 14; Ecoli rRNA inh OD600: 10; Ecoli rRNA inh RFP: -1.3; B2AR ag: 3; Calb FLC: -20; LANA-H2B inh: 1.3; Bfl-1 A1 inh: 0.5; ALR inh: -2
30. CCCCN1C(Nc2ccccc2)=NC[C@@H]1Cc1ccccc1
  T cruzi repl: .; Beta cell apopt: -3; Ecoli rRNA inh: -2; Ecoli rRNA inh OD600: -7; Ecoli rRNA inh RFP: 3.4; B2AR ag: 4; Calb FLC: .; LANA-H2B inh: 2.3; Bfl-1 A1 inh: -0.2; ALR inh: .

The list continues.
entry	SMILES	T cruzi repl	Beta cell apopt	Ecoli rRNA inh	Ecoli rRNA inh OD600	Ecoli rRNA inh RFP	B2AR ag	Calb FLC	LANA-H2B inh	Bfl-1 A1 inh	ALR inh
41	COC(=O)c1ccc(CNC(=O)Cn2cnnn2)cc1	-1	-1	7	7	-0.4	0	4	3.7	0.3	-8
42	Cc1ccnc(SCc2ccc([N+](=O)[O-])cc2)n1	-11	-10	2	3	0.8	-6	-4	-1.3	-0.6	.
43	CC(c1ccccc1)N1CC(C(=O)NC2CCCC2)CC1=O (stereo not drawn)	-7	1	.	.	.	3	-2	-3.0	0.3	-6
44	COc1cc2nc(SCC(N)=O)n(CCC3=CCCCC3)c(=O)c2cc1OC	9	3	3	5	-1.1	8	-5	-1.1	0.0	-1

This is a subset; count on the stated rates, not on these rows.
